# Compound activity (PubChem)
# StopGo FLuc: FMDV 2A StopGo reporter, firefly signal | 120,000 tested, 0.23% active | HEK cells with a luciferase reporter of 2A StopGo recoding | AID 1745856 | Potency, µM (titrated, usually from 57.5 µM), for the others: top-dose signal change, negative = less light; active = well fitted falling curve with a large enough effect; inconclusive = small, poorly fitted or top-dose-only effect; inactive = no such curve, though single readings can be large or run the other way; also: nearly all actives have a fitted effect of over 60% in size; overnight with compound
# StopGo RLuc: FMDV 2A StopGo reporter, Renilla signal; HEK cells with a luciferase reporter of 2A StopGo recoding; Potency, µM (highest dose often 57.5 µM), without a hit: at the top dose signal change, negative = less light; 120,000 tested, 0.32% active; AID 1745857; active means well fitted falling curve with a large enough effect; inconclusive means small, poorly fitted or top-dose-only effect; inactive means no such curve, though single readings can be large or run the other way; also: nearly all actives have a fitted effect of over 55% in size; overnight with compound
# * marks the source's active call; other numbers are inactive results; ? = inconclusive; & = joins results of further samples; [ ] = remark or other dose. % is scaled to controls: 0 for no effect and ±100 for the full control effect; potency is read from the fitted curve at half-maximal effect. A portion of the library; count on the stated rates, not on these rows.
SMILES,StopGo FLuc,StopGo RLuc
COc1ccc(CNS(=O)(=O)c2cnc(N)nc2)c(OC)c1,153%[activator],186%[activator]
CCCc1c(C(=O)OCC)[nH]c2c1C(=O)CC(c1ccc(N(C)C)cc1)C2 (stereo not given),7%,124%[activator]
Cc1cccc(C)c1OCC(=O)N(Cc1ccc(Cl)cc1)CC1CCCO1 (stereo not given),-17%,78%[activator]
O=C(Nc1ccc(F)cc1Cl)c1cnc(N2CCOCC2)c2ccccc12,16%,-18%
Cc1ccc(NC(=O)C2CCCN2S(=O)(=O)c2ccc3c(c2)CCCC(=O)N3)cc1Cl (stereo not given),?,?
COc1cc2nc(CSCC(=O)N3CCC(=O)CC3)[nH]c(=O)c2cc1OC,5%,3%
CC(SC1=Nc2ccccc2CS1)C(=O)NC1CCCC1 (stereo not given),?,-11%[1.06 µM]
COc1ccccc1Nc1nc2nccc(-c3ccco3)c2c(=O)[nH]1,53%[activator],6%
CC(C#N)Sc1nnc(Nc2ccccc2)s1 (stereo not given),256%[activator],86%[activator]
Cc1cccc(OCC(=O)N/N=C/c2cccc(O)c2)c1,66%[activator],2%
COc1cccc(NC(=O)C2CCN(c3nc4ccccc4nc3OC)CC2)c1,-2%,-4%
CCOc1cc2c(cc1NC(=O)c1ccc(C)c(OC)c1)OC(C)C2 (stereo not given),80%[activator],9%
Cc1c(Cl)cccc1-c1ccc(CNCCCSc2nnnn2C)o1,-17%,-15%
COc1ccc(S(=O)(=O)N2CCCN(CC(=O)Nc3ccc(OC)cc3OC)CC2)cc1,-16%,9%
CCCNC(=O)CN1C(=O)c2c(c3ccccc3n2C)C1c1ccc(OC)cc1 (stereo not given),-12%,5%

# Single values from the entries so far.
# COc1ccc(CNS(=O)(=O)c2cnc(N)nc2)c(OC)c1 in StopGo RLuc has 186%[activator]
# Cc1cccc(OCC(=O)N/N=C/c2cccc(O)c2)c1 in StopGo RLuc has 2%
# CC(SC1=Nc2ccccc2CS1)C(=O)NC1CCCC1 (stereo not given) in StopGo RLuc has -11%[1.06 µM]

# 2 entries from above, field by field:
COc1ccc(S(=O)(=O)N2CCCN(CC(=O)Nc3ccc(OC)cc3OC)CC2)cc1
  StopGo FLuc: -16% | StopGo RLuc: 9%
CCCNC(=O)CN1C(=O)c2c(c3ccccc3n2C)C1c1ccc(OC)cc1 (stereo not given)
  StopGo FLuc: -12% | StopGo RLuc: 5%

# (cont.)
SMILES,StopGo FLuc,StopGo RLuc
Cc1cc(NC(=O)CN2CCN(c3nccs3)CC2)on1,6%,-8%
CCC(C(=O)Nc1cccc(C#N)c1)n1c(=O)c(-c2ccccc2NC(C)=O)nc2ccccc21 (stereo not given),-18%,-10%
COc1cc(NS(=O)(=O)c2cccc(Cl)c2C)cc2sc(NC(C)=O)nc12,53%[activator],246%[activator]
Cc1cc(C)c(NC(=O)CCCn2c(C)c3cnn(-c4ccccc4)c(=O)c3c2C)c(C)c1,-2%,-18%
Cc1nc2nc(N(Cc3ccc(F)cc3)C(=O)c3ccco3)[nH]n2c(=O)c1Cc1ccccc1,18%,30%
OCc1cnc(SCc2ccccc2F)n1Cc1ccc(F)cc1,18%,10%
COc1ccc(C(=O)Nc2c(C)cccc2C(C)C)c(OC)c1,0%,35%[activator]
O=C(CSc1nc2ccccc2c(=O)n1-c1ccccc1)N1CCCCC1,27%,49%[activator]
CCC(NC(=O)c1sccc1C)c1ccc(C)cc1 (stereo not given),11%,0%
Cc1cccc(C(=O)n2nc(-c3cccnc3)nc2NCc2ccccc2)c1,0%,-9%
CCc1ccc(NC(=O)Cc2c(C(=O)O)c(C)cn2C)cc1,-10%,-11%
CCOC(=O)c1ccc(N2C(=O)c3n[nH]c(-c4ccco4)c3C2c2ccc(O)c(OC)c2)cc1 (stereo not given),-14%,-13%
CCOC(=O)NC(Nc1ccc(Cl)cc1)(C(=O)OCC)C(F)(F)F (stereo not given),0%,94%[activator]
Cc1cc(C)cc(NC(=O)Cn2nc(N3CCN(c4ccccc4)CC3)ccc2=O)c1,-10%,1%
COC(=O)c1ccc(/C=C2/SC(=O)N(C(C)C(=O)OC)C2=O)cc1 (stereo not given),0%,0%
CC(=O)N1CCCc2cc(S(=O)(=O)N3CCC(C(=O)Nc4ccc(C)cc4Cl)CC3)ccc21,-4%,-9%
CCNC(=O)c1c(NC(=O)Cc2coc3cc(C)cc(C)c23)sc2c1CCCC2,-16%,76%[activator]
CCOc1ccc2nc(NC3=NC(CC(=O)O)C(=O)N3)nc(C)c2c1 (stereo not given),-6%,-3%
O=C(CCc1cccs1)Nc1ccc2c(c1)OCCCO2,181%[activator],-5%[1.06 µM]
Cc1c(CCC(=O)NCCc2ccccc2F)c(=O)oc2cc(O)ccc12,7%&2%,1%&0%
COc1ccc(CCNCc2c(C(=O)O)c(C)n(Cc3cccc(Cl)c3)c2C)c(OC)c1OC,-21%,6%
CCC(C)NC(=S)Nc1cc(C)cc(C)c1 (stereo not given),3%,67%[activator]
CC(C)(C)C(=O)CSc1nc2ccsc2c(=O)n1Cc1ccccc1F,8%,79%[activator]
COC(=O)Cn1c(CN2CCN(c3cc(Cl)ccc3C)CC2)nc2c1c(=O)n(C)c(=O)n2C,?,?
Cc1ccc(CNC(=O)CCN2C(=O)C(C)Oc3ccc(C)cc32)cc1 (stereo not given),-8%,-4%
CCCN(Cc1ccccc1)C(=O)c1cccs1,15%,17%
Cc1ccc(C)n1-c1c(C(=O)N2CCC3(CC2)OCCO3)sc2ncccc12,35%[activator],30%
CCOC(=O)c1[nH]c2ccc(C)cc2c1NC(=O)c1ccccc1F,12%,-7%
O=C(c1ccc2c(c1)N(Cc1ccccc1)C(=O)c1ccccc1S2(=O)=O)N1CCN(Cc2ccccc2)CC1,-1%,19%
CCC1CCc2sc(C(=O)NCCC(C)C)cc2C1 (stereo not given),182%[activator],160%[activator]
CCSc1nc2n(n1)C(c1ccc(C(=O)O)cc1)C(C(=O)Nc1ccccc1C)=C(C)N2 (stereo not given),-16%,-5%
O=C(CSc1nc2cc(S(=O)(=O)N3CCOCC3)ccc2o1)NC12CC3CC(CC(C3)C1)C2,?,17%
CCOc1cc(C(=O)OCc2cc(=O)n3nc(C4CC4)sc3n2)cc(OCC)c1OCC,-13%&0%,-15%&3%
N#Cc1ncn(CC(=O)NCC(=O)Nc2ccccc2Br)n1,-5%,-11%
Cc1cc2cc(NS(=O)(=O)c3ccc(C(C)(C)C)cc3)ccc2[nH]1,?,74%[activator]
CC(Sc1nnc(N2CCOCC2)n1-c1cccc(F)c1)C(=O)c1ccc(Br)cc1 (stereo not given),-3%,61%[activator]
CNC12CC3CC(CC(C3)C1)C2,4%,-13%
CCCN(CCC)S(=O)(=O)c1ccc2c(c1)N(CC(=O)NCc1ccc(F)cc1Cl)C(=O)CS2,-24%,19%
COc1ccc(-c2cc(-c3ccccc3)nc(SCC(=O)Nc3ccccc3F)c2C#N)cc1,-5%,4%
COc1ccc(NC(=O)CCCc2nnc3n(C(C)C)c(=O)c4sccc4n23)cc1Cl,-9%,-8%
CN(CC(=O)NC1(C)CCS(=O)(=O)C1)Cc1ccc(Cl)cc1 (stereo not given),-8%,-7%
C=C(C)Cn1c(SCC(=O)Nc2cccc(Cl)c2)nc2sc3c(c2c1=O)CCCC3,9%,14%
CC(=O)c1ccc(NS(=O)(=O)c2ccc3c(c2)NC(=O)CCS3)cc1,5%,81%[activator]
COc1ccc(C(=O)COC(=O)c2cc(=O)c3ccccc3o2)cc1,-5%,-6%
Cc1ccccc1-c1nnn(CCCn2c(=O)c3c(ncn3C)n(C)c2=O)n1,-3%,-11%
COc1ccc(-c2nc3c(c(SCC(=O)Nc4cc(C)cc(C)c4)n2)Cc2c(CO)cnc(C)c2O3)cc1,-8%,-7%
CC1(C)CC(NC(=O)Cc2ccccc2)CC(C)(CNC(=O)Cc2ccccc2)C1 (stereo not given),19%,36%[activator]
CCCCn1c(CCC(=O)Nc2ccccc2C)nc2c1c(=O)[nH]c(=O)n2CCC,0%,25%
CCOc1ccc(C(c2c(O)cc(C)n(Cc3ccco3)c2=O)N2CCN(c3ccccc3)CC2)cc1 (stereo not given),-27%,24%
O=C(c1ccc(N2CCCN(Cc3ccc(Cl)cc3)C2=O)cc1)N1CCOCC1,18%,16%
COc1ccc(N(CC(=O)N2CCc3ccccc3C2)S(=O)(=O)c2ccc(C)cc2)cc1Cl,9%,211%[activator]
Cc1ccc(CNC(=O)c2ccc3c(c2)nc(C)n3-c2cc(C)cc(C)c2)cc1,-10%,4%
Cc1ccc(C2=NN(S(C)(=O)=O)C(c3ccc(F)cc3)C2)cc1 (stereo not given),201%[activator],130%[activator]
CCc1ccc(CNC(=O)c2cnc3c(C)cccn3c2=O)cc1,3%,6%
COc1ccccc1Nc1c2c(nc3ccc(NC(=O)/C=C/c4cc(OC)c(OC)c(OC)c4)cc13)CCCC2,?,-11%
CC(C)c1ccc(NC(=O)C2CCC(CNS(=O)(=O)c3ccc4c(c3)CCCC(=O)N4)CC2)cc1 (stereo not given),-14%,2%
O=C(CCn1cnc2onc(-c3ccc(F)cc3)c2c1=O)N1CCN(c2ccccc2F)CC1,-12%,-12%
CC(=O)NS(=O)(=O)c1ccc(NC(=O)c2cccn(Cc3ccc(Cl)cc3)c2=O)cc1,-24%,-8%
NC(=O)c1cccc(OCc2ccccc2)c1,16%,12%
Cc1nn(Cc2ccccc2)c(C)c1CNC(=O)c1cc(Cl)c2c(c1)OCCCO2,1%,0%
# (cont.)
SMILES,StopGo FLuc,StopGo RLuc
CCOC(=O)[C@]12CCCCC/C=C\1N(CCc1ccc(Cl)cc1)C(=O)[C@H]2CC(=O)NCC1CCCCC1,-18%,-20%
COc1cc(OC)c(N(C)C(=O)Cn2ncc3c([nH]c4ccccc43)c2=O)cc1Cl,-16%,-8%
N#Cc1c(NC(=O)CSc2nc(C(F)(F)F)nc3ccccc23)sc2c1CCC2,-8%,-10%
CCOc1cc2[nH]c(=O)n(CCC(=O)N3CCN(c4cccc(Cl)c4)CC3)c(=O)c2cc1OCC,3%,11%
CCOc1ncccc1C(=O)Nc1ccc(C)c(S(=O)(=O)N(C)C)c1,12%,12%
C/C(=N\NC(N)=S)c1ccc(-c2ccc(Br)cc2)cc1,0%,28%
Cc1cc(C)cc(NC(=O)C2CC(=O)n3c(nc4ccccc43)N2)c1 (stereo not given),0%,-10%
O=S(=O)(Nc1nc2ccccc2nc1NC1CC1)c1ccc2c(c1)OCCO2,17%,99%[activator]
Cc1nc2ccc(S(=O)(=O)N(CC(=O)Nc3ccc(F)cc3F)Cc3ccccc3)cc2s1,-19%,51%[activator]
CCCCc1oc2ccc(NS(C)(=O)=O)cc2c1C(=O)c1ccc(OCCCN(CCCC)CCCC)cc1,-19%,25%
C1CC2CCC1CNC2,0%,20%
CC(C)c1ccc(C2c3c(-c4ccccc4O)n[nH]c3C(=O)N2CCc2ccccc2)cc1 (stereo not given),-5%,-8%
CCOC(=O)c1ccccc1NC(=O)c1c(F)cccc1F,8%,21%
CCOc1ccccc1-n1c(SCC(=O)OC)nc2ccccc2c1=O,13%,0%
COc1ccc(Cn2ccn(Cc3cccc(OC)c3)c(=O)c2=O)cc1,-4%,18%
N#CCCn1nc(-c2ccccc2)c2ccccc2c1=O,-7%,-10%
CC(Cc1c[nH]c2ccccc12)NC(=O)CNc1nc(Cl)nc2nc[nH]c12 (stereo not given),-7%,2%
CCOc1ccccc1NC(=O)Cn1c(=O)n(-c2ccc(Cl)cc2)c(=O)c2oc3ccccc3c21,-2%,-2%
CCc1ccc(NC(=O)CCn2nc(C)c(S(=O)(=O)N3CCCCC3)c2C)cc1,-3%,115%[activator]
Cc1c(Cl)cccc1Nc1nc(N)c(C(=O)c2ccccc2F)s1,25%,6%
CC1CC1C(=O)NCCC(=O)NC1CC2CCC1(C)C2(C)C (stereo not given),5%,-1%[1.06 µM]
Cc1ccc(CNC(=O)CCCCCn2c(=O)c3sccc3n(CC(=O)N3CCCCC3C)c2=O)cc1 (stereo not given),-4%,-9%
COc1ccccc1C1C=C(c2ccc(F)cc2)Nc2nc(-c3ccc(Cl)cc3)nn21 (stereo not given),-16%,-12%
CN(C)C(=O)c1ccc(Cl)cc1NS(=O)(=O)c1cccc(F)c1,9%,47%[activator]

# Grouped by structure: those above containing an NH in an aromatic ring.
SMILES,StopGo FLuc,StopGo RLuc
CCCc1c(C(=O)OCC)[nH]c2c1C(=O)CC(c1ccc(N(C)C)cc1)C2 (stereo not given),7%,124%[activator]
COc1cc2nc(CSCC(=O)N3CCC(=O)CC3)[nH]c(=O)c2cc1OC,5%,3%
COc1ccccc1Nc1nc2nccc(-c3ccco3)c2c(=O)[nH]1,53%[activator],6%
Cc1nc2nc(N(Cc3ccc(F)cc3)C(=O)c3ccco3)[nH]n2c(=O)c1Cc1ccccc1,18%,30%
CCOC(=O)c1ccc(N2C(=O)c3n[nH]c(-c4ccco4)c3C2c2ccc(O)c(OC)c2)cc1 (stereo not given),-14%,-13%
CCOC(=O)c1[nH]c2ccc(C)cc2c1NC(=O)c1ccccc1F,12%,-7%
Cc1cc2cc(NS(=O)(=O)c3ccc(C(C)(C)C)cc3)ccc2[nH]1,?,74%[activator]
CCCCn1c(CCC(=O)Nc2ccccc2C)nc2c1c(=O)[nH]c(=O)n2CCC,0%,25%
COc1cc(OC)c(N(C)C(=O)Cn2ncc3c([nH]c4ccccc43)c2=O)cc1Cl,-16%,-8%
CCOc1cc2[nH]c(=O)n(CCC(=O)N3CCN(c4cccc(Cl)c4)CC3)c(=O)c2cc1OCC,3%,11%
CC(C)c1ccc(C2c3c(-c4ccccc4O)n[nH]c3C(=O)N2CCc2ccccc2)cc1 (stereo not given),-5%,-8%
CC(Cc1c[nH]c2ccccc12)NC(=O)CNc1nc(Cl)nc2nc[nH]c12 (stereo not given),-7%,2%
